Rce1 inhib: inhibitors of yeast Ras-converting enzyme; yeast membranes, quenched prenylated peptide cleavage fluorescence; 0.27% of 290,000 active; calls only; Q03530; AID 2563;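 active = fall in fluorescence gain of 50% or more versus controls, with final raw signal at or below 3038400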;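 note: plate controls were neutral control wells for no effect and wells lacking membranes for full effect; tested at 10 µM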
Env fusion inh: inhibitors of HIV Env-mediated cell fusion; HeLa-JRFL Env/CEM21 cell fusion, luciferase; inhibition, % at 12.3 µM; 1.1% of 360,000 active; AID 651610;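 active = mean replicate inhibition score of at least 50 and every replicate individually at or above 50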;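 note: 0% = plate neutral controls and 100% = maraviroc near 300 nM; one replicate is shown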
PABP polyA inh: blocks human PABP binding to poly(A) RNA | P11940 | fluorescence polarization | inhibition, % at 35 µM | 1% of 290,000 active | AID 2014;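 active = 50% or more with normal probe brightness, or confirmed in later tests; about a fifth of its hits are not listed in these tables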;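 note: calls also rest on retests at 20 µM and on dose response follow-up; controls were probe without protein and protein plus probe with vehicle; some compounds called inactive have numbers as strong as hits; many hits fall short of the cut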
Target sequence (P11940 whole entry, looked up): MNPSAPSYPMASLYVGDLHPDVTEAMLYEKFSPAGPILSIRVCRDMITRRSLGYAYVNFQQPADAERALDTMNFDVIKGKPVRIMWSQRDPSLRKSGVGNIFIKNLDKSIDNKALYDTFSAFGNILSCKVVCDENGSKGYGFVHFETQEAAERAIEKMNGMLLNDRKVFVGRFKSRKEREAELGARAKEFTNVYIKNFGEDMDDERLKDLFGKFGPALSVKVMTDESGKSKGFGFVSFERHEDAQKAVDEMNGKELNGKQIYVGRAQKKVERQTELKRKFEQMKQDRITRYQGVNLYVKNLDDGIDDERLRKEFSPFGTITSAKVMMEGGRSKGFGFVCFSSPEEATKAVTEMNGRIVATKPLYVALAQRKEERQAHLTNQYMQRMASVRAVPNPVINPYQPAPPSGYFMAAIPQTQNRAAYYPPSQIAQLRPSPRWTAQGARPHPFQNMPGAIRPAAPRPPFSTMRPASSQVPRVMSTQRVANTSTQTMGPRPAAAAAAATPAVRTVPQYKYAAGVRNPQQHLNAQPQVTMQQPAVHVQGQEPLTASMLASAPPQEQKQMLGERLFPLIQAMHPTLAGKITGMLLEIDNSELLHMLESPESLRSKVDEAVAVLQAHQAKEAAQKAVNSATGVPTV
MT1-MMP act inh: MT1-MMP (human) activation inhibition; P50281; HT1080 RFP-PRO-GFP cells, GFP/RFP ratio fluorescence, overnight; percent of plate control window, DMSO zero; GFP/RFP ratio change, % at 20 µM; 0.061% of 360,000 active;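 active = GFP/RFP ratio change of at least 30% with cell ATP level not reduced by more than half and red fluorescence within 50% of control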; note: strong numbers were not always called active
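Material: RFP-PRO-GFP reporter HT1080 cells. Dosing: single-point 20 µM compound, 1% DMSO. Controls: DMSO and RFP-L50D-GFP cell wells. Timing: cells overnight before dosing, compound overnight, 37 °C, 5% CO2. Measure: GFP/RFP fluorescence ratio.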
Yeast UUG start: alters start codon recognition fidelity in yeast. S. cerevisiae UUG-firefly luciferase reporter, luminescence/redox ratio. activity score, % at 18.7 µM. 0.13% of 350,000 active;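 active = replicate mean at a twofold rise or more, about +100% in these data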;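 note: firefly luciferase made from a UUG start codon reports start codon fidelity; reporter light over untreated wells divided by growth signal over untreated wells; some hits fall short of that in this replicate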
eIF4H inh: inhibitors of RNA binding by human eIF4H; Q15056; eIF4H fluorescence polarization binding assay; 0.94% of 290,000 active; inhibition, % at 35 µM;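 active = 50% or more with normal probe brightness, or confirmed in later tests; about a fifth of its hits are not listed in these tables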;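 note: calls also rest on retests at 20 µM and on dose response follow-up; 0% = protein and probe with vehicle and 100% = probe without protein; strong numbers were not always called active; many hits fall short of the cut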
CSC inhib: cancer stem cell inhibition; AID 2717; cancer stem cell-like cells viability, luminescence; 1.1% of 300,000 active; inhibition, % at 7.5 µM;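 active = mean at 75% or more and at least half the replicates too; tested in HMLE shEcad cells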;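 note: 0% = median of negative and 100% = median of positive control wells; the first replicate is given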
eIF4H inh retest: further read-out of eIF4H inh, marked with its call; inhibition, %; compound at 20 µM; confirmation average;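 mean of two retest wells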
PABP polyA inh retest: second read-out of PABP polyA inh, no call of its own (marks repeat the call); inhibition, %; compound at 20 µM; confirmation repeats;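 mean of two retest wells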
MT1-MMP act inh RFP: recorded beside MT1-MMP act inh, whose call it bears; RFP signal change, %; measured here: RFP expression control read;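 0 = vehicle wells; hits needed this value within 50% of zero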
* hit, by the source's call; i = inactive; · = not tested or not shown; + = active, no number. These rows are one share of the data, so the mix of outcomes need not match the whole.

SMILES	Rce1 inhib	Env fusion inh	PABP polyA inh	MT1-MMP act inh	MT1-MMP act inh RFP	Yeast UUG start	eIF4H inh	CSC inhib	others
CC(=O)NCCC(=O)N1CCc2c([nH]c3ccccc23)C1c1cccc(Cl)c1 (configuration not stated)	i	-8	10	-1	-2	·	-4	-4
Cc1ccc(NC(=O)CCN2CCN(C/C=C/c3ccccc3)CC2)cc1	·	·	-1	4	-3	4	-4	2
CCCOc1ccc(C(=O)NCC(c2ccco2)N(C)C)cc1 (configuration not stated)	i	6	-12	4	6	7	-4	7
CC(C)C(C)NC(=O)COc1ccc(-c2ccccc2)cc1 (configuration not stated)	i	11	10	-14	-6	-17	0	19
Cn1c(-c2ccc3c(c2)OCO3)cnc1NCc1ccccc1	i	-101	16	0	17	-9	1	7
Cc1ccc(NC(=O)CSc2ccc3nnc(CCNC(=O)c4ccccc4)n3n2)c(C)c1	i	-5	10	11	3	·	0	-9
Clc1ccccc1-c1nc2ccccc2c2nc3ccccc3n12	i	·	31	-8	-10	·	-8	72
O=C(NC(C(=O)c1ccccc1)N1CCCCC1)c1ccccc1 (configuration not stated)	i	-28	-9	-1	1	-12	0	-1
CCN1CCN(c2ccc(NC(=O)c3cnccn3)cc2)CC1	i	·	1	·	·	·	0	-9
O=C(CCc1ccccc1)NC1C2CC3CC(C2)CC1C3 (configuration not stated)	i	16	-3	-2	-4	4	-4	-5

Six entries from above, sorted by number of heavy atoms, high to low:
SMILES	Rce1 inhib	Env fusion inh	PABP polyA inh	MT1-MMP act inh	MT1-MMP act inh RFP	Yeast UUG start	eIF4H inh	CSC inhib	others
Cc1ccc(NC(=O)CSc2ccc3nnc(CCNC(=O)c4ccccc4)n3n2)c(C)c1	i	-5	10	11	3	·	0	-9
CC(=O)NCCC(=O)N1CCc2c([nH]c3ccccc23)C1c1cccc(Cl)c1 (configuration not stated)	i	-8	10	-1	-2	·	-4	-4
Cc1ccc(NC(=O)CCN2CCN(C/C=C/c3ccccc3)CC2)cc1	·	·	-1	4	-3	4	-4	2
Clc1ccccc1-c1nc2ccccc2c2nc3ccccc3n12	i	·	31	-8	-10	·	-8	72
CCN1CCN(c2ccc(NC(=O)c3cnccn3)cc2)CC1	i	·	1	·	·	·	0	-9
CC(C)C(C)NC(=O)COc1ccc(-c2ccccc2)cc1 (configuration not stated)	i	11	10	-14	-6	-17	0	19

(next part)
SMILES	Rce1 inhib	Env fusion inh	PABP polyA inh	MT1-MMP act inh	MT1-MMP act inh RFP	Yeast UUG start	eIF4H inh	CSC inhib	others
Cn1c(=S)[nH]c2c(c1=O)C(C)(C)Cc1ccccc1-2	i	4	-7	-1	-3	·	26	-1
O=S(=O)([O-])C/C(=C\c1ccc(Cl)cc1)c1cc[n+](CCO)cc1	i	8	8	-2	-3	·	1	2
CCc1ccccc1NC(=S)N(CCCN(C)C)Cc1cc2cc3c(cc2[nH]c1=O)OCO3	+	-14	2	-5	-2	·	-7	-2
Cc1cnc(-c2nnc(N(C)C(=O)C3CCOC3)s2)cn1 (configuration not stated)	i	-7	3	-4	-1	-2	-6	-1
CCOC(=O)c1c[nH]n2c(=S)ncnc12	·	-19	·	3	7	27	·	·
O=C(c1ccc(S(=O)(=O)N2CCCCCC2)cc1)N1CCCC(C(F)(F)F)C1 (configuration not stated)	i	·	·	1	-4	-14	·	1
COc1ccc(C(=O)COC(=O)c2cc(=O)c3ccccc3o2)c(OC)c1	·	-18	·	3	5	0	·	·
Cc1ccccc1N/N=C1\CCCNC1=O	i	·	-2	1	3	-15	-8	-7
CCC(=O)c1c[nH]c(C(=O)NCCc2ccccn2)c1	i	·	8	15	7	-8	0	-13
COc1cc(-c2nnc(COc3ccc4cc(Br)ccc4c3)o2)cc(OC)c1OC	i	6	3	2	2	6	-7	19
Cc1ccc(Cc2c(-c3ccc(C)cc3)nc3c4ccccc4ccn23)cc1	·	14	·	-5	0	4	·	·
C#CCOCCOCCOCCNc1nc(N2CCN(C(=O)Cn3cc(CCO)nn3)CC2)nc(N2CCN(C(=O)[C@H]([C@@H](C)CC)n3cc(CCCN=C(N)N)nn3)CC2)n1	·	3	·	-1	0	10	·	·
O=C(/C=C/c1cccs1)N1CCC2(CC1)Oc1ccc(Cl)cc1C(=O)C21CC(c2ccccc2)=NO1 (configuration not stated)	i	-13	-7	-4	-1	-4	-4	7
CC(=O)N1CCN(c2ccc([N+](=O)[O-])c(NCC3CCCO3)c2)CC1 (configuration not stated)	i	·	-9	6	0	·	-7	-11
O=C(O)CCCCCn1c(O)c(C=C2N=c3ccccc3=N2)sc1=S	i	-4	11	-1	6	·	5	-9
CCOc1ccc(C(=O)CN2CCN(S(=O)(=O)c3ccc(Cl)cc3)CC2)cc1	i	·	-1	·	·	-10	-2	-17
COc1ccc(Br)cc1CNC(=O)C1CCCN(S(=O)(=O)N2CC(C)CC(C)C2)C1 (configuration not stated)	i	13	-6	-33	-27	13	-4	16
CCOc1cccc2cc(C(=O)NCc3ccc(Cl)cc3)c(=N)oc12	i	15	-6	-2	0	-14	-2	3
Nc1ccnn1Cc1cccnc1	i	-38	2	5	3	-8	-5	2
O=C(NC(=S)NC1CCCCC1)c1ccccc1	·	-40	-2	3	0	-19	-5	-4
Cc1ccc2c(c1)c1c3n2CCN(CC(N)=O)C3CCC1 (configuration not stated)	i	81*	6	-9	-8	2	-2	-10
COc1ccc(C(C)(C)C)cc1NC(=S)NCCN1CCOCC1	i	-11	57*	13	5	-20	-2	-14	eIF4H inh retest=-14;PABP polyA inh retest=78*
O=C(CCC(=O)c1cccs1)OCc1ccc([N+](=O)[O-])cc1	·	·	·	-2	-1	-30	·	-16
Cc1c(NC(=O)c2ccc(S(=O)(=O)N(C)c3ccccc3)cc2)c(=O)n(-c2ccccc2)n1C	i	17	20	0	0	-2	-2	3
CC(=O)N1CCN(Cc2nc3cc(NC(=O)COc4ccccc4)ccc3n2C)CC1	i	20	5	5	1	·	-4	8
O=C(CCNC(=O)c1ccccc1Cl)Nc1cccc(C(F)(F)F)c1	·	-9	-1	2	1	-1	-8	-3
CCCc1cc(=O)n2[nH]c(-c3ccc(Cl)cc3)cc2n1	i	-55	4	1	-2	-12	-6	-1
Nc1nnc(-c2ccc(Cl)cc2Cl)s1	i	-92	-14	-6	-2	·	-6	-13
CCN(CC)C(=O)CNC(=O)Cc1ccc(Cl)cc1	i	-82	-11	2	5	-15	-3	·
Cn1ncc2c(N3CCCCC3)nc(NCCCO)nc21	i	-5	6	-1	1	-12	0	-4
Cc1cc(C)cc(N(CC(=O)NC2CCCC2)C(=O)CCC(=O)Nc2nccs2)c1	i	-20	7	1	-1	-14	0	4
CCc1cccc(C)c1NC(=O)C1CN(S(=O)(=O)c2ccccc2)CCN1S(=O)(=O)c1ccccc1 (configuration not stated)	i	-22	-2	-5	-6	-15	2	10
O=C(Cc1ccc(Cl)cc1)Nc1ncc([N+](=O)[O-])s1	i	-24	0	-4	-20	·	40	·
CCOC(=O)C1=CCN(S(=O)(=O)c2ccc(Cl)cc2)C1c1cccc(C)c1 (configuration not stated)	·	1	·	6	-5	-16	·	·
C=Cc1ccc(Cn2c(C)c(C(=O)NCc3ccc4c(c3)OCO4)sc2=O)cc1	·	18	·	4	-9	-15	·	·
CC(C)(C)c1cc(CCC(=O)Nc2ccncc2)cc(C(C)(C)C)c1O	i	0	-7	-6	-7	-6	-5	0
CC(C)C(C)NC(=O)COc1ccc(Sc2ccc(OCC(=O)NC(C)C(C)C)cc2)cc1 (configuration not stated)	i	·	2	-7	-28	-18	7	2
Cc1ccccc1CC(=O)Nc1ccc2c(C)cc(=O)oc2c1	i	-2	-12	2	0	8	-6	-7
COc1ccc(/C=N/n2cnc3c([nH]c4ccc(C)cc43)c2=O)cc1CN1CCCC1	i	10	-40	2	3	-15	-5	0
COc1cc(CNC(=O)c2cc(-c3ccc(OC)cc3C)n[nH]2)cc(OC)c1	·	-3	·	1	3	-5	·	·
COc1ccccc1CNC(=O)C1(C)CCN1Cc1ccc(OC(F)(F)F)cc1 (configuration not stated)	·	25	·	-1	-20	-1	·	·
Cc1cc(C(=O)NCCCN2CCN(C3CCCCC3)CC2)n(-c2ccccc2)n1	i	9	-23	-1	6	-31	-6	2
CN1C(=O)c2cccc3c(S(=O)(=O)NCc4ccco4)ccc1c23	i	·	22	3	3	-5	2	-1
Clc1ccc2nc3ccccc3cc2c1	·	-44	·	1	0	-19	·	·
COc1cc(-c2cc(-c3ccccc3)nc(SCC(=O)O)c2C#N)cc(OC)c1OC	i	-31	9	8	2	-16	-2	-23
O=C(C1CC(=O)N(c2ccc3c(c2)OCCO3)C1)N1CCCC(C(F)(F)F)C1 (configuration not stated)	i	3	·	3	5	-10	·	·
CCCc1nnc(NC(=O)CCC(=O)NC2CCCc3ccccc32)s1 (configuration not stated)	i	16	0	-9	-7	·	0	-4
Cc1onc(-c2c(Cl)cccc2Cl)c1C(=O)NCc1ccco1	i	·	12	0	1	-1	-8	-8
Cc1ccc(Cl)cc1NC(=O)[C@@H]1CCC(=O)N1C1OC(=O)c2ccccc21 (some centres not stated)	i	·	0	1	4	-19	-1	-11
COc1ccccc1OCC(=O)Nc1ccc(Cl)cc1	i	-144	-8	2	1	1	6	1
(more compounds)
SMILES	Rce1 inhib	Env fusion inh	PABP polyA inh	MT1-MMP act inh	MT1-MMP act inh RFP	Yeast UUG start	eIF4H inh	CSC inhib	others
C#CCOCCOCCOCCNc1nc(N2CCN(C(=O)CCCCCCCCCCNC(=O)[C@H](CCCCN)n3cc(CCO)nn3)CC2)nc(N2CCN(C(=O)CCCCCCCCCCNC(=O)[C@@H]([C@H](C)O)n3cc(C)nn3)CC2)n1	·	·	·	5	4	20	·	-1
CCCc1ccc(C(O)c2ncc(-c3cccc(C)c3)[nH]2)cc1 (configuration not stated)	·	-11	·	4	-1	-13	·	·
CN1CCN(C(=O)/C(=C/c2ccc(F)cc2)c2ccsc2)CC1	i	-10	-2	4	10	·	-11	-4
CCOc1ccc(N2CC(C(=O)Nc3ccccc3N3CCOCC3)CC2=O)cc1 (configuration not stated)	i	-7	2	-1	10	5	7	-12
CCOc1ccc(N(CC(=O)Nc2ccc(OC)cc2OC)S(=O)(=O)c2c(C)[nH]c(=O)[nH]c2=O)cc1	i	-2	·	-2	1	4	·	5
CC(C)C(c1nnnn1Cc1ccc(F)cc1)N1CCN(c2ccc(O)cc2)CC1 (configuration not stated)	i	3	-2	-5	-5	·	3	11
CCSc1cc(Cl)nc(N)n1	i	-4	-14	2	3	-12	6	-12
Fc1ccc2c(Cl)c(-c3nnc(-c4cccs4)o3)sc2c1	i	i	10	7	1	-15	3	-11
CCOC(=O)C1(C#N)C(=O)CSC1=Nc1ccccc1Cl (configuration not stated)	·	33	·	23	41	-16	·	·
CC(C)c1ccc(N(CC(=O)NC2CCCC2)C(=O)CCC(=O)Nc2ccccn2)cc1	i	4	-2	1	-2	11	-12	-5
COc1ccc(C2(CCN)CC(C)N(C)CC2C)cc1 (configuration not stated)	i	·	44	1	4	-16	16	-8
COc1ccc(S(=O)(=O)N2CCC(C(=O)NN3CCCCC3)CC2)cc1OC	·	12	·	1	1	-13	·	-7
COCCNC(=O)C(c1ccccc1)N(C(=O)Cn1nnc2ccccc21)c1cccnc1 (configuration not stated)	i	-63	-6	3	4	-1	4	-3
O=C(c1ccco1)N1CCN(Cc2nnc(-c3cccc(Br)c3)o2)CC1	·	-5	9	·	·	-5	18	5
COc1ccc(CNC(=O)CCCNC(=O)c2ccc(Cl)cc2)cc1OC	i	3	6	1	-2	-13	-6	1
COc1cccc(CN2CCNC(=O)C2CC(=O)N(C)CCC2CCOCC2)c1 (configuration not stated)	i	0	·	0	2	-13	·	-9
Cc1cc(=O)oc2c3c(cc(OCC(=O)N[C@@H](CC(C)C)C(=O)O)c12)OC(C)(C)CC3	i	0	0	-5	1	-14	-15	2

Screening results as filed in PubChem BioAssay.
